# HCMV NEC inh – inhibitors of HCMV UL50-UL53 interaction, biochemical, HTRF. HCMV UL50-UL53 nuclear egress complex (human cytomegalovirus). normalized percent inhibition. inhibition, % (test concentration not listed). actives 0.15% (n = 190,000);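 active = both replicates at 50% or more, plus weaker picks with an unusually low signal ratio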;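 also: stock transfer was 100 nL into about 20 µL; 0% = negative control wells and 100% = wells with untagged competitor protein; inactives centre near -12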
# GIV Gai3 FP – inhibitors of GIV peptide binding to Galpha-i3, primary screen, biochemical, fluorescence polarization, FITC-GIV GBA peptide, rat Galphai3. 90 min; active compounds read low; scaled: aluminum fluoride 0%, vehicle 100%. actives 0.42% (n = 210,000). percent of control (FP), % (concentration not given with the values);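 active = replicate mean at 85% of control or lower, very high polarization wells dropped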;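 also: wells of about 15 µL received 100 nL stock; the first replicate is given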
# Target sequence (P08753 whole entry, looked up): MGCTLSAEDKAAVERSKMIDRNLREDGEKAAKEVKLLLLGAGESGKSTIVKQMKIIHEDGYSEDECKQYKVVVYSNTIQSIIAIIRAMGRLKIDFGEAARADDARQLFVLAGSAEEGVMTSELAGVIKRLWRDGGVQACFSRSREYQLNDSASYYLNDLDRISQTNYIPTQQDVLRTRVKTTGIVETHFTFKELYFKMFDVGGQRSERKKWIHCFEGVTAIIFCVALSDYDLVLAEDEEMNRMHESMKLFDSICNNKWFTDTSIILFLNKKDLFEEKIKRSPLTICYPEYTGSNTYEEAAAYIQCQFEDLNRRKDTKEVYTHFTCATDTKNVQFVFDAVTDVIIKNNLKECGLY
# Sa growth inh – S. aureus growth inhibition at 42 and 30 °C, primary screen, LtaS inhibitor project, RN4220, two temperatures | OD600, 20 h, 42 °C; active compounds read low | relative growth, % (test concentration not listed) | actives 0.53% (n = 170,000) | AID 720641, 2013;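 active = growth at 42 °C up to 50% and 20 or more points under that at 30 °C, or under 10% at both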;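 also: 300 nL library stock went into each well; scaled to the means of positive and negative controls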
# Sa growth inh second temp – also measured in Sa growth inh; calls as there; relative growth, %; measured here: growth at 30 °C;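 optical density after 20 h as mean of two plates; 100% = untreated growth and lower means inhibition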
# * marks the source's active call; other numbers are inactive results; nt = no result given. Rows are unselected. About 0.83% of those tested had a hit in this group.
SMILES,HCMV NEC inh,GIV Gai3 FP,Sa growth inh,Sa growth inh second temp
COc1ccc(C(=O)Nc2onc3c2CCCC3)cc1,-29,105,99,81
CC1=NN(c2ccc(S(N)(=O)=O)cc2)C(=O)/C1=C\c1ccco1,-34,112,87,87
CCOC(=O)NC(=S)Nc1ccc(OC)cc1,1,102,94,93
CCN1CCN(c2nc(-c3ccccc3Cl)nc3ccccc23)CC1,0,105,nt,nt
COc1ccc(C(CNC(=O)COc2ccccc2)c2c[nH]c3ccccc23)cc1 (stereo unspecified),10,109,nt,nt
COc1ccc(-c2noc(CCC(=O)N(C)c3cc(Cl)ccc3OC)n2)cc1,-18,103,110,90
COc1ccc2c(COC(=O)Cn3cnnn3)cc(=O)oc2c1,-4,nt,99,97
CCOC(=O)CNCc1ccc(Cl)cc1,-19,98,94,88
CCn1nc(-c2cccs2)cc1C(=O)N(C)C,2,105,105,87
O=C(CCCCl)Nc1nc(-c2cccs2)cs1,-53,nt,90,67
O=C1COc2ccc(-c3csc(Nc4cc(-c5ccccc5)nn4-c4ccccc4)n3)cc2N1,-15,101,nt,nt
CCc1ccc(-c2noc(CSc3ccc(-c4ccc5c(c4)OCO5)nn3)n2)cc1,-21,106,nt,nt
CCC(=O)Nc1cc(-c2nc3cc(C)cc(C)c3o2)ccc1C,-75,107,115,90
O=C(O)CSC1=CC(=O)N(c2cccc(Cl)c2)C1=O,0,nt,87,87
NC(=O)CSc1ccccn1,-14,102,98,92
O=C(OCc1ccccc1F)C1COc2ccccc2O1 (stereo unspecified),1,nt,101,96
NC(=O)C1CCN(Cc2nc(-c3cccs3)no2)CC1,-24,100,109,91
CCOC(=O)c1c(C=O)oc2c(C)cc(OC(=O)c3cccc(C)c3)c(Br)c12,1,101,nt,nt
CCOCCCNC(=O)c1cc(-c2cccnc2)nc2ccccc12,-38,110,nt,nt
CCCC(c1nnnn1CS(=O)(=O)c1ccc(C)cc1)N1CCC(C(N)=O)CC1 (stereo unspecified),2,99,97,104
COc1ccccc1CNC(=O)/C=C/C(=O)O,-6,99,105,98
CC1CSC(N(C(=O)c2cnccn2)c2ccc(Cl)cc2)=N1 (stereo unspecified),1,nt,104,83
CCCCNC(=O)Cn1nc(-c2ccccc2)ccc1=O,-69,101,100,86
CN(C1=CC2=CC(=C(C#N)C#N)CCC2CC1)C1CCCCC1 (stereo unspecified),-16,nt,78,93

# Retrieved by structure from the list above, five records:
SMILES,HCMV NEC inh,GIV Gai3 FP,Sa growth inh,Sa growth inh second temp
CCCC(c1nnnn1CS(=O)(=O)c1ccc(C)cc1)N1CCC(C(N)=O)CC1 (stereo unspecified),2,99,97,104
COc1ccccc1CNC(=O)/C=C/C(=O)O,-6,99,105,98
NC(=O)CSc1ccccn1,-14,102,98,92
CCCCNC(=O)Cn1nc(-c2ccccc2)ccc1=O,-69,101,100,86
CCOC(=O)c1c(C=O)oc2c(C)cc(OC(=O)c3cccc(C)c3)c(Br)c12,1,101,nt,nt

# (next part)
SMILES,HCMV NEC inh,GIV Gai3 FP,Sa growth inh,Sa growth inh second temp
O=C(Nc1cccc2nsnc12)c1ccccn1,-59,100,nt,nt
CCC(Sc1nc2ccccc2c2nc(-c3ccccc3)nn12)C(=O)Nc1cccc(OC)c1 (stereo unspecified),nt,104,103,89
COC(=O)c1cc(-c2cccnc2)nc2ccccc12,nt,105,99,78
O=C(COC(=O)C1CC1)NCc1ccc(Cl)cc1,1,nt,93,88
COC(=O)c1ccc(-c2ccccc2F)cc1,2,99,111,82
O=C(Cn1cnc2ccccc21)c1ccc(Cl)cc1,nt,105,96,77
CC1(C)CC(NC(=O)c2ccccc2)CC(C)(C)N1,-8,98,93,87
CCc1ccc(NC(=O)N(Cc2ccc(C)cc2)Cc2cccn2-c2nnc(N3CCCC3=O)s2)cc1,3,99,99,95
O=C(Cn1ncc2c1-c1ccccc1OC2)N1CCN(c2ccccc2F)CC1,-33,103,110,82
O=c1cc(C23CC4CC(CC(C4)C2)C3)[nH][nH]1,-20,nt,64,64
Cc1cc(C)nc(SCc2ccccc2C(=O)N2CCN(Cc3ccc(C#N)cc3)CC2)n1,-25,nt,79,95
COc1ccc(C(=O)CSc2nc3ccccc3c(=O)n2-c2ccc(C)cc2)cc1,-5,nt,97,89
O=C(CCSCc1cnn(-c2ccccc2)c1-n1cccc1)NCc1ccc(Cl)cc1,-18,103,105,100
CN(C)c1nccc(Nc2ccccc2)c1C#N,-7,99,131,82
CCN(CC)C(=O)c1ccc2c(c1)N(CC(=O)NCc1ccc3c(c1)OCO3)C(=O)CO2,8,100,nt,nt
CCCC(=O)NCc1csc(-c2ccc(OC)cc2)n1,-44,96,nt,nt
O=c1c2ccccc2[nH]c(=S)n1CCO,22,107,97,96
COC(=O)C1=C(C)Nc2nc3ccccc3n2C1c1ccccc1 (stereo unspecified),10,96,85,95
Cn1c(SCc2cc(=O)n3[nH]c(-c4ccccc4)nc3n2)nc2sc3c(c2c1=O)CCCC3,-3,105,nt,nt
CCCc1nnc(/N=C/c2cc(-c3ccccc3)oc2O)s1,nt,109,100,93
COC(=O)c1ccccc1NC(=O)Cn1c(CCC(=O)O)ccc1-c1ccc(C)cc1,-21,100,86,70
CCCCCn1c(NCc2ccc(N(C)C)cc2)nc2ccccc21,-4,95,73,32
CC(C)NC(=O)c1ccoc1COc1ccccc1,nt,101,93,93
Cc1cc(NC(=O)CC2(CC(=O)O)CCCC2)n(C)n1,8,102,116,95
CCc1ccc(CN2C(=O)CCC2(C)C(=O)NC2CCCC2)cc1 (stereo unspecified),-28,105,nt,nt
O=C(O)CCCC(=O)Nc1ccccc1Oc1ccccc1,-15,95,97,89
CSc1ccsc1C1=NC(C)(C)CO1,-2,103,106,72
Cc1ccccc1CN(C)C(=O)c1ccc2ccccc2n1,-10,nt,99,90
Cc1nn2c3ccccc3nc2n(-c2ccccc2)c1=O,2,101,101,101
O=C(CCOc1ccccc1)N(Cc1cccnc1)c1nc2ccc(Cl)cc2s1,nt,102,126,90
Oc1ccc(Cl)cc1C=NCc1cccs1,-9,112,108,97
Cc1ccc(C)c(N2CCN(C(=O)C34CC5CC(C3)CC(n3nnc(C)n3)(C5)C4)CC2)c1,10,106,93,101
CN1CC(=Nc2nonc2N)N(C)C1=O,-4,101,98,83
CCCSc1ccc(Cl)nn1,-24,102,nt,nt
CCOCCOC(=O)C1=C(C)NC2=C(C(=O)CC(C)(C)C2)C1c1cc(OC)c(OC)cc1Br (stereo unspecified),-9,104,nt,nt
O=C(Nc1ccc(Cl)cc1)C12CC3CC(CC(O)(C3)C1)C2,-12,nt,104,95

# Whole records from above. Values in the order: HCMV NEC inh, GIV Gai3 FP, Sa growth inh, Sa growth inh second temp
# `Cc1ccc(C)c(N2CCN(C(=O)C34CC5CC(C3)CC(n3nnc(C)n3)(C5)C4)CC2)c1` is listed with 10, 106, 93, 101
# `O=C(Nc1ccc(Cl)cc1)C12CC3CC(CC(O)(C3)C1)C2` is listed with -12, nt, 104, 95

# Other structures follow.
SMILES,HCMV NEC inh,GIV Gai3 FP,Sa growth inh,Sa growth inh second temp
O=C(CN1N=C(c2ccccc2)CCC1=O)NCCC1=CCCCC1,-8,100,109,94
Cc1nn(CCC(=O)N2CCN(c3ccccc3)CC2)c(C)c1S(=O)(=O)N1CCCC1,nt,104,103,93
CCOC(=O)c1nc(NC(C)C)c2c(-c3ccc(F)cc3)noc2n1,-4,104,nt,nt
C/C(=C/C(=O)C(F)(F)F)N1CCN(Cc2ccccc2)CC1,-31,nt,67,97
Cc1cccc(C)c1N=C1Oc2ccccc2N(C(=O)C(F)(F)F)C1(C)c1ccccn1 (stereo unspecified),nt,98,113,80
CC(C)c1ccc(NC(=O)CC2NCCNC2=O)cc1 (stereo unspecified),5,104,101,88
CC(=O)Nc1ccc(S(=O)(=O)[C@H]2CS(=O)(=O)C[C@@H]2NCCc2c[nH]c3ccccc23)cc1,-3,98,nt,nt
CCOC(=O)C(Cc1ccccc1)C(=O)Nc1cccc(C)n1 (stereo unspecified),-12,98,106,82
CCc1ccccc1N(C)S(=O)(=O)c1ccc2c(c1)C(C)(C)C(=O)N2C,nt,111,114,87
CC1Oc2ccccc2N(CC(=O)N2CCN(c3ccc(=O)n(-c4ccc(F)cc4)n3)CC2)C1=O (stereo unspecified),-48,101,nt,nt
CCOC(=O)c1cc2c(C(F)(F)F)cc(-c3cccs3)nc2o1,8,nt,109,100
Cc1ccccc1OCC(=O)Nc1ccccc1C(=O)OCc1cc(=O)n2c(C)csc2n1,nt,100,85,86
Cc1cccc(C2Sc3ccccc3NC3=C2C(=O)c2ccccc23)c1 (stereo unspecified),-18,105,nt,nt
Cn1c(=O)c2[nH]c(SCC(=O)c3ccc(-c4ccccc4)cc3)nc2n(C)c1=O,-16,nt,81,87
CC1CCN(c2csc3ccc(F)cc3c2=O)CC1,nt,110,96,77
O=C(NC1CCCCCC1)C1COc2ccccc2O1 (stereo unspecified),-2,96,119,81
CC1CCCCN1CCNC(=O)c1nc(-c2cccnc2)no1 (stereo unspecified),-24,103,106,81
COc1ccc(Cl)cc1C(=O)NCc1nc(-c2cccc(C)c2)no1,9,101,89,94
COc1ccc(-c2nn3c(-c4cc(CC(C)C)[nH]n4)nnc3s2)cc1,4,105,nt,nt
COc1cc2nc3n(Cc4ccccc4)c4ccccc4n3c(=O)c2cc1OC,-12,102,99,97
CCN1CCCC1CNC(=O)CCCOc1cc(=O)n(C)c2ccccc12 (stereo unspecified),-18,98,81,88
Cc1c(-c2ccccc2)c(=O)oc2cc(OCC#N)ccc12,-52,102,103,86
Cc1cc(C)n(C(C)CC(=O)Nc2ccc(CN3CCC(C)CC3)cc2)n1 (stereo unspecified),-35,103,109,79
Cc1oc2ncn(CC(C)C)c(=O)c2c1C(=O)Nc1cc(F)ccc1F,nt,103,84,89
CCOC(=O)c1[nH]c(CSc2nnnn2-c2ccccc2C)c(C(=O)OCC)c1C,-13,nt,105,92
O=S(=O)(c1ccccc1F)N1CCC(Oc2ccc(-n3cnnn3)cc2)CC1,-32,95,90,77
Cc1ccc(S(=O)(=O)N(CC(=O)Nc2c(C)cccc2C)c2cccc(Cl)c2)cc1,-21,105,107,82
O=C(CCSc1nc2ccccc2o1)Nc1ccc(Br)cc1,-4,100,118,103
COC(=O)C1=C(C)N(c2ccc(OC)cc2)C(=O)/C1=C\c1ccccc1O,-34,97,98,90
O=C(NCc1ccc(F)cc1)c1cc(-c2ccc(Cl)cc2)n[nH]1,nt,103,83,96
Cc1ccc(C(=O)Nc2cccc(-c3nc4cccnc4s3)c2C)cc1,14,106,105,93
Cc1ccc(CCNC(=O)NC(C)(C)C)cc1,2,nt,95,92
c1ccc(Cn2ncc3c(Nc4ccc5ccccc5c4)ncnc32)cc1,nt,103,107,85
CCCNC(=O)c1cnc2c(-c3ccc(OCC)c(OCC)c3)c(C)nn2c1-c1ccccc1,nt,103,98,92
CN(CC(=O)Nc1ccc(F)cc1)C(=O)c1ccc(-c2ccc(F)cc2)o1,-41,nt,113,85
O=C(Nc1c(C(=O)N2CCN(c3ccc(F)cc3)CC2)oc2ccccc12)c1c(F)cccc1F,nt,102,101,92
COc1cc(/C=C2\C(=O)N(c3ccc(Cl)c(C(=O)O)c3)N=C2C)cc([N+](=O)[O-])c1O,-46,102,nt,nt
NC(=O)C1(N2CCCCC2)CCN(c2ccc3nnc(-c4ccccc4)n3n2)CC1,-102,100,99,66
O=C(CSc1nnc(-c2ccncc2)n1Cc1ccco1)OC1CCCCC1,-8,101,105,82
COC(=O)c1cc(NC(=O)c2ccc3c(c2)NC(=O)c2ccccc2S3)cc(C(=O)OC)c1,-27,101,80,77
N#Cc1c2c(c(Cl)n3c1nc1ccccc13)CCC2,-33,110,72,62
COc1cc(/C(N)=N/O)cc(OC)c1OC,-20,100,86,88
c1ccc(CN2CCN(Cc3ccncc3)CC2)cc1,0,nt,99,89
O=C1C[C@H](NC(=O)OCc2ccccc2)CO1,-6,nt,82,83
CN(c1ccccc1)S(=O)(=O)c1ccc(C(=O)O)cc1,10,100,91,104
Cc1ccc(C)c(OCCn2nnc3ccccc32)c1,-20,95,90,86
Cc1ccc(C)c(N2CCN(C(=O)C3CCN(c4nc5ccc(C)cc5[nH]4)CC3)CC2)c1,nt,101,91,37
CCOC(=O)CN1CCOCCN(CC(=O)OCC)CCOCC1,-19,96,106,99

# Limited to Sa growth inh, for seven of the compounds above:
smiles | Sa growth inh
COC(=O)c1cc(NC(=O)c2ccc3c(c2)NC(=O)c2ccccc2S3)cc(C(=O)OC)c1 | 80
N#Cc1c2c(c(Cl)n3c1nc1ccccc13)CCC2 | 72
COc1cc(/C(N)=N/O)cc(OC)c1OC | 86
c1ccc(CN2CCN(Cc3ccncc3)CC2)cc1 | 99
O=C1C[C@H](NC(=O)OCc2ccccc2)CO1 | 82
CN(c1ccccc1)S(=O)(=O)c1ccc(C(=O)O)cc1 | 91
Cc1ccc(C)c(OCCn2nnc3ccccc32)c1 | 90

# (next part)
SMILES,HCMV NEC inh,GIV Gai3 FP,Sa growth inh,Sa growth inh second temp
COC(=O)C1(C(O)C(=O)c2ccc(C)cc2C)CCCCC1 (stereo unspecified),3,108,92,102
O=C(Nc1ccccc1C(F)(F)F)c1cnc2ccccn2c1=O,nt,104,96,86
COc1ccc(Cl)cc1NC(=O)CN1C(=O)COc2ccc(S(=O)(=O)NC3CCCC3)cc21,nt,102,78,77
N#Cc1c(-c2cccs2)cc(C(F)(F)F)[nH]c1=S,-33,nt,106,72
Brc1ccc(-c2cn3cc(Cc4ccccc4)sc3n2)cc1,-26,102,86,95
